# LASV entry inh: blocks Lassa virus binding to or entry into cells; Lassa virus pseudotype entry inhibition, cell reporter; control for the full effect not named in the record; Potency, µM (doses to about 37.9 µM), inactives show at the highest dose activity change, negative = inhibition, hits mostly inhibitors; AID 540256; actives 1.2% (n = 300,000); active means well fitted inhibition curve with a large enough effect; inconclusive means small, poorly fitted or top-dose-only effect, or effect the other way; inactive means flat fitted curve, though single readings scatter; tested in HEK293 cells; further: on the % scale 0 is the no-effect control and ±100 the full control effect; nearly all actives have a fitted effect of over 50% in size; luciferase read-out
# RE007 growth inh: less growth of the S. pombe RE007 Vpr strain. S. pombe RE007 Vpr strain, BacTiter-Glo ATP luminescence, 24 h; control for the full effect not named in the record. Potency, µM (titrated, usually from 92.2 µM), inactives show top-dose activity change, negative = less growth. actives 0.21% (n = 360,000); active = well fitted falling curve with a large enough effect; inconclusive = small, poorly fitted or top-dose-only effect; inactive = no such curve, though single readings can be large or run the other way;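 further: on the % scale 0 is the no-effect control and ±100 the full control effect; nearly all actives have a fitted effect of over 50% in size; the assay follows cell death caused by Vpr and the record does not say whether a fall means rescue or toxicity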
#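 Fission yeast RE007 carrying one integrated HIV-1 vpr copy, seeded at OD 0.01 in PMG+AL medium with 23 nL pinned compound. Grown 24 h at 30 degrees; viability read by BacTiter-Glo luminescence after 5 min.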
# StopGo reporter: lowers the luciferase signal of an FMDV 2A StopGo reporter; human cells with a luciferase reporter of 2A StopGo recoding; control for the full effect not named in the record; Potency, µM (top dose mostly 57.9 µM), without a hit: at the highest dose signal change, negative = less light; actives 1.2% (n = 410,000); AID 1159524; active = well fitted falling curve with a large enough effect; inconclusive = small, poorly fitted or top-dose-only effect; inactive = no such curve, though single readings can be large or run the other way; tested in HEK293T cells; further: on the % scale 0 is the no-effect control and ±100 the full control effect; nearly all actives have a fitted effect of over 45% in size; luciferase light after 4 h
# SARS PLpro yeast: inhibitors of SARS-CoV papain-like protease in yeast; Potency, µM (titrated, usually from 32.9 µM), inactives show at the highest dose activity, positive = growth rescue; S. cerevisiae expressing SARS-CoV PLpro, growth rescue; control for the full effect not named in the record; AID 485353; actives 0.19% (n = 330,000); further: 0% is about no effect; nearly all actives have a fitted effect of over 55% in size; growth read by luminescence after 48 h
# NS1 inh: inhibitors of influenza NS1 protein function. S. cerevisiae slowed by influenza A NS1, growth recovery by OD600. Potency, µM (titrated, usually from 46.1 µM), inactives show at the top dose activity, positive = more growth. AID 2326. actives 0.4% (n = 270,000); further: actives are rising curves; nearly all actives have a fitted effect of over 50% in size
#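 In this qHTS, NS1 from influenza A is expressed in budding yeast, where it slows growth. Cells are switched from glucose to 2% galactose medium (pH 6.0, -URA), treated with compound, and growth recovery is read at OD600.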
# Cruzain inh noDet: cruzain (T. cruzi) inhibition without detergent | P25779 | purified cruzain, Z-FR-AMC fluorescence, no detergent | Potency, µM, for inactives: max response, negative = inhibition, actives largely listed as inhibitors | actives 2.3% (n = 200,000) | AID 1476; active means well fitted curve in the direction sought with a large enough effect; inconclusive means small, poorly fitted or top-dose-only effect, or another doubt; inactive means no such curve, though single readings can be large; an effect the other way counts as inactive or inconclusive;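 further: plate controls were enzyme without inhibitor for no effect and buffer without enzyme for full effect; nearly all actives have a fitted effect of over 40% in size; top concentration of the series not given in the record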
# Target sequence (P25779 123-467 limits assumed): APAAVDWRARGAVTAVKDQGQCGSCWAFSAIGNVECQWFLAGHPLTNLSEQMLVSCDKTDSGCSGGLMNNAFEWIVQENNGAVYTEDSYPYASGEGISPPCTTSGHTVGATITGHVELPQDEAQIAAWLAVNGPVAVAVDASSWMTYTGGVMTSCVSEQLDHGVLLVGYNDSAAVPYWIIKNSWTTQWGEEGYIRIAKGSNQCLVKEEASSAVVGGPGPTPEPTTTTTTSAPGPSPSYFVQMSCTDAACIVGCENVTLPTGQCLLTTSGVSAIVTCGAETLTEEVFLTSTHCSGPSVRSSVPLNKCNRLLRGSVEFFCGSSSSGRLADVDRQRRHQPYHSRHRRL
#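 Purified cruzain at 1.5 nM, pre-incubated 15 min with compound at room temperature in 100 mM sodium acetate pH 5.5, 5 mM DTT, 0.00005% Triton X-100. Reaction started with 2 uM Z-FR-AMC; AMC fluorescence increase over 60 s gives rate.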
# Marburg entry inh: inhibitors of Marburg virus binding or cell entry | Marburg virus pseudotyped entry inhibition, cell reporter; control for the full effect not named in the record; about a third of the inactives were read at about 46 µM | Potency, µM (series often up to 37.8 µM), inactives show top-dose activity change, negative = inhibition, most hits filed as inhibitors | actives 1.8% (n = 300,000); active = well fitted inhibition curve with a large enough effect; inconclusive = small, poorly fitted or top-dose-only effect, or effect the other way; inactive = flat fitted curve, though single readings scatter; tested in HEK293 cells; about a fifth of its hits are not listed in these tables; further: on the % scale 0 is the no-effect control and ±100 the full control effect; luciferase read-out
# Cruzain inh Det: inhibitors of Trypanosoma cruzi cruzain with detergent | P25779 | purified cruzain, Z-FR-AMC fluorescence, 0.01% Triton | Potency, µM, without a hit: max response, negative = inhibition, usual class: inhibitors | actives 0.43% (n = 200,000); active means well fitted curve in the direction sought with a large enough effect; inconclusive means small, poorly fitted or top-dose-only effect, or another doubt; inactive means no such curve, though single readings can be large; an effect the other way counts as inactive or inconclusive;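 further: plate controls were neutral wells for no effect and buffer without enzyme for full effect; nearly all actives have a fitted effect of over 40% in size; top concentration of the series not given in the record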
#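 Detergent-containing arm of a paired screen for aggregation-based inhibition: 0.01% Triton X-100 present. Cruzain at 1.5 nM cleaved 2 uM Z-FR-AMC at pH 5.5 with 5 mM DTT; AMC fluorescence gain over 60 s measured activity.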
# * hit, by the source's call; ? = inconclusive; . = not tested or not shown; & = joins results of further samples; [ ] = dose if it differs, or a comment. Unless noted, the call rests on the fitted dose curve; in most records, active means well fitted rising curve with a large enough effect; inconclusive means small, poorly fitted or top-dose-only effect; inactive means no such curve, though single readings can be large or run the other way. Potency means the concentration at half of the fitted maximal effect.
Molecule,SARS PLpro yeast,Cruzain inh noDet,NS1 inh,LASV entry inh,Marburg entry inh,RE007 growth inh,StopGo reporter,Cruzain inh Det
COc1ccc2nc(SCC(=O)NCCc3ccccc3)[nH]c2c1,0%,.,3%,-12%,6%[46.1 µM],16%,-6%,.
CC(C)CCNC(=S)Nc1ccc(F)cc1,.,.,.,-7%,24%,0%,58%[activator],.
NC(=O)NC(=O)CN1C(=O)NC2(CCOc3ccccc32)C1=O (stereo not given),-1%,.,1%,-7%,21%[46.1 µM],18%,17%,.
CCO[C@@H]1OC(C(=O)O)=C[C@H](C2CC2)[C@H]1CCCO,0%,.,-2%,.,.,-15%,-8%,.
CCOC(=O)c1c(NC(=O)c2cc(C(C)C)on2)sc(C(C)=O)c1C,-7%,3%&16%,7%,-8%[46.1 µM],14%[46.1 µM],-9%,-11%&11%,5.3%&-1.4%
Cc1nc2ncnn2c(N2CCC(C(=O)NCC3CCCO3)CC2)c1Cc1ccccc1 (stereo not given),.,.,-3%,5%,-3%,6%,1%,.
CC(C)CC(=O)Nc1ncc([N+](=O)[O-])s1,0%,.,-7%,15%[46.1 µM],?,-20%,15%,.
CCCCCCCCCCCCC(NC(C)=O)(C(=O)OCC)C(=O)OCC,0%,.,18%,-10%[46.1 µM],-10%[46.1 µM],2%,-13%,.
O=S(=O)(Cc1ccc(Cl)cc1)CC(O)COCc1ccccc1 (stereo not given),0%,1%,2%,11%,6%,2%,.,-2.5%
NC(=O)C1CCCN1 (stereo not given),5%,.,.,.,22%[46.1 µM],23%,13%,.
O=C1NC(c2cccs2)Nc2sc3c(c21)CCCC3 (stereo not given),-3%,?,-22%,?,?,-3%,18%,-2.4%
Cc1ccc(S(=O)(=O)Nc2cc(=O)[nH]c(SCC(=O)Nc3ccccc3C(F)(F)F)n2)cc1,-1%,.,-12%,16%[46.1 µM],-2%[46.1 µM],3%,-11%,.
O=C(NC1CC1)C1CCN(C2CCN(C(=O)CC3=CCCCC3)CC2)CC1,1%,.,0%,1%[46.1 µM],2%[46.1 µM],-7%,0%,.
CC(=O)c1cccc(NC(=O)C2CCCN(S(=O)(=O)c3cccc4nonc34)C2)c1 (stereo not given),-2%,.,1%,1%[46.1 µM],7%[46.1 µM],6%,13%,.
COc1cccc2c3c(c(C)nc12)CCN3c1ccccc1,-3%,.,-3%,-26%,?,-5%,-23%,.
COc1ccc(NS(=O)(=O)c2c(C)[nH]c(=O)[nH]c2=O)cc1OC,1%,.,-1%,.,.,-8%,-16%,.
COc1ccc(C(=O)NCC(=O)OCC(=O)N(C)c2ccccc2)cc1,1%,.,?,.,.,17%,-18%,.
COc1cc(C(=O)OC(C)CN2CCN(C)CC2)cc(OC)c1OC (stereo not given),-4%,3%,-8%,1%,-2%,-8%,16%,-0.4%
CCOC(=O)C1=C(COC(=O)/C=C/c2cccc(F)c2)NC(=O)NC1C (stereo not given),-2%,.,.,-8%[46.1 µM],8%[46.1 µM],10%,9%,.
COc1ccc(O)c(/C=N/NC(=O)CCC(=O)Nc2ccc(C)cc2)c1,-1%,.,7%,.,.,0%,-14%,.
O=C1c2cccnc2C(O)N1Cc1ccc(F)cc1 (stereo not given),-14%,10%,5%,29%[14.3 µM],-27%,13%,31%[activator],2.4%
CCN(CCNC(=O)C1CCCN(S(=O)(=O)CC)C1)c1ccccc1 (stereo not given),14%,5%,-5%,8%,-1%,17%,-1%,4.1%
Cn1cccc1-c1cc(C(=O)N/N=C/C=C/c2ccccc2)[nH]n1,0%,.,.,?,?,6%,0%,.
O=C(Cc1c(F)cccc1Cl)Nc1ccccc1-c1ccccc1,9%,.,2%,-29%[46.1 µM],?,5%,16%,.
O=C(CN(Cc1ccccc1)C(=O)CSc1nnc(COc2ccccc2)o1)NC1CCCC1,3%,19%,0%,?,2%[46.1 µM],11%,-8%,-4.2%
CCN(CC)c1ccc(NS(=O)(=O)c2cc(-c3onc(C)c3C)ccc2OC)c(C)c1,.,-4%,.,?,.,.,3%,-4.6%
COc1cccc2cc(-c3csc(CCn4nc(C)cc4C)n3)c(=O)oc12,6%,13%,-6%,9%,?,-1%,?,-2.9%
CCOC(=O)c1c(NC(C)=O)sc2c(OCC(O)CN(CC)CC)c(Br)ccc12 (stereo not given),0%,.,.,2.5µM*,11µM*,4%,14%,.
COc1ccc(-c2ccc3c(N)c(C(=O)NCc4ccc(C)cc4)sc3n2)cc1,.,16µM*,.,?,-2%[46.1 µM],.,23%,13µM*
CNc1nc(Nc2ccc(Br)cc2)nc(N)c1[N+](=O)[O-],-4%,?,20%,16%,?,-2%,22%,1.5%
Cc1cccc(-c2nc3c(cnn3-c3ccccc3)c(=O)n2-c2cccc(Cl)c2)c1,.,-21%,.,?,.,.,12%,-8.8%
COc1cc(OC)cc(-c2nnc(NC(=O)c3ccc4c(c3)OCCO4)o2)c1,-3%,.,-3%,.,.,11%,-16%,.
Cc1cccc(C)c1OCC(=O)Nc1nc(-c2ccc(Br)cc2)ns1,.,11%,.,20%[46.1 µM],2%[46.1 µM],.,-14%,-2.8%
CCCCN(C(=O)CCC(=O)O)C1CC(=O)N(c2ccc(OCCC)cc2)C1=O (stereo not given),1%,8%,-7%,5%,4%&4%,3%,-19%,4.1%
O=[N+]([O-])c1ccccc1N/N=C/c1cccc(O)c1O,-1%,.,2%,.,.,-25%,-11%,.
Fc1ccccc1CSc1nnc(-c2ccccc2)o1,-14%,-3%,-94%,1%,?,?,40%[activator],-2.6%
C(=N\Nc1ccc2ccccc2n1)/c1ccc2c(c1)OCO2,2%,.,.,2.2µM*,?,-22%,-88%,.
CCCNC(=O)CSc1nc2nc(C)c(Cc3ccccc3Cl)c(C)n2n1,.,-3%,.,-3%[46.1 µM],4%[46.1 µM],.,-12%,-1.6%
Cc1cc(NC(=O)CSc2nnc(-c3ccoc3C)n2N)no1,-7%,-5%,-1%,6%,10%,2%,16%,4.8%
CC(C)NC(=O)c1onc(CSc2ccc(Cl)cc2)c1C(=O)O,-2%,-6%,4%,.,.,4%,-12%,-2.0%
O=C(Nc1cc(-c2nc3ccccc3s2)ccc1Cl)c1ccc2c(c1)OCO2,2%,?,7%,?,-27%,14%,.,4.9%
Cc1ccccc1-n1sc2cc(F)ccc2c1=O,-22%,.,.,-17%,?,-92%,?,.
Cc1sc2ncnc(SCC(=O)Nc3cccc(S(N)(=O)=O)c3)c2c1C,1%,.,.,?,?,5%,-9%,.
CC1(OC(=O)C2CCCC2)C(=O)C=C2C=C(c3ccsc3)N(CC3CC3)C=C2C1=O (stereo not given),-2%,.,-2%,?,?,2%,-2%,.
Fc1ccccc1N1CCN(c2nc(-c3cccs3)nc3ccccc23)CC1,-5%,.,9%,5%,16%&16%[46.1 µM],-10%,?,.
CCc1ccc(NC(=O)c2ccc(CN3C(=O)C(C)=C(c4ccc(C)cc4)S3(=O)=O)cc2)cc1,.,-3%,.,26%[46.1 µM],.,.,-18%,-2.6%
CCOC(=O)C(CC)Sc1nc(N)c(NC(=O)c2ccc(OC)c(OC)c2)c(=O)[nH]1 (stereo not given),-1%,10%,-9%,.,0%,7%,-14%,0.4%
Cc1ccc(NC(=O)CC2Sc3ccccc3NC2=O)c(Br)c1 (stereo not given),.,-6%,.,?,?,.,?,3.9%
CCC(=O)OCc1cnc(C)c2oc(=O)c(C(=O)Nc3ccccc3C(F)(F)F)cc12,.,2%,.,24%[46.1 µM],.,.,-16%,-2.4%
Cc1cc(C)cc(NC(=O)COc2ccc3c(C)c(Cc4ccccc4)c(=O)oc3c2)c1,1%,?,18%,14%,-36%,.,.,-6.4%
CCOCC(=O)Nc1cc(C(=O)NCCc2ccccc2)ccc1Cl,-3%,.,0%,1%[46.1 µM],?,11%,52%[activator],.
COc1ccc(CCN2CC(O)=C(c3nc(C)cs3)C2=N)cc1OC,5%,3%,4%,4%,-3%,-4%,-20%,4.1%
Cc1ccc(Nc2sc(C(=O)c3ccccc3)c(N)c2C(N)=O)cc1,.,9%,.,?,.,.,-12%,-1.4%
Cn1c(CCN2CCCCC2)nc2cc(NC(=O)COc3ccc([N+](=O)[O-])cc3)ccc21,1%,.,3%,.,.,2%,24%,.
C/C(=N\NC(=O)c1ccccc1O)c1c(O)n(C2CCCCC2)c(=O)[nH]c1=O,3%,.,20%,.,.,25%,-6%,.
COc1ccc(N(C(=O)CS(=O)CC(=O)Nc2ccc(F)cc2)C(C(=O)NC2CCCCC2)c2cccs2)cc1 (stereo not given),9%,6%,-6%,-1%&5%,-4%&20%,28%,-12%,-4.5%
COC(=O)c1ccc(CSc2ncnc3c2nnn3-c2ccc(OC)cc2)o1,-1%,-6%,-5%,11%,10%,12%,-2%,0.8%
CCOC(=O)C1=C(NC(=S)NC(=O)c2ccccc2)c2ccccc2CC1(C)C,-4%,-9%,-27%,1.4µM*,?,16%,-18%,-5.2%

# Two entries picked at random from the list so far, as already listed:
Molecule,SARS PLpro yeast,Cruzain inh noDet,NS1 inh,LASV entry inh,Marburg entry inh,RE007 growth inh,StopGo reporter,Cruzain inh Det
COc1ccc(CCN2CC(O)=C(c3nc(C)cs3)C2=N)cc1OC,5%,3%,4%,4%,-3%,-4%,-20%,4.1%
Cc1cc(C)cc(NC(=O)COc2ccc3c(C)c(Cc4ccccc4)c(=O)oc3c2)c1,1%,?,18%,14%,-36%,.,.,-6.4%
